# FGF22 binding: binders of human FGF22 protein, primary screen, FGF22 synaptogenesis inhibitor project, biophysical, thermal shift, single point | Fibroblast growth factor 22 (Homo sapiens), Q9HCT0 | recombinant FGF22 thermal shift, SYPRO orange fluorescence; percent of sucrose octasulfate shift, DMSO zero | calls only at 9.99 µM | 1.5% of 340,000 active;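 active means melting point raised past a set limit in the mean and every replicate; inconclusive means no clear call; three in four hits are not shown here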
# Target sequence (Q9HCT0 whole entry, looked up): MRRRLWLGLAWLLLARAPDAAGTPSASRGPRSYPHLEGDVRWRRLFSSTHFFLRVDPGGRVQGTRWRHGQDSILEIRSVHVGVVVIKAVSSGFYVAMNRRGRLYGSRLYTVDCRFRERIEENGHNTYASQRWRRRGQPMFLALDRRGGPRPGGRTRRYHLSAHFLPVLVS
# Ecoli growth: E. coli growth inhibition, primary screen, OD600; Escherichia coli growth, 23 h; hits give low values; OD600 absorbance (concentration not given with the values); 0.21% of 330,000 active;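 active means OD600 absorbance below the run mean of sample wells minus 3.6 SD, in any replicate, cut at about 0.56 in these data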;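 further: stock transfer was 300 nL into about 60 µL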
# Ecoli rRNA inh: reduced GFP signal of wild-type E. coli, primary screen, bacterial rRNA inhibitor project, GFP/RFP fluorescence, OD600, single point | E. coli WT GFP vs humanized-ribosome RFP mutants, 24 h; hits give low values; DMSO median 0, no signal -100 | GFP signal change (wild-type ribosome), % (no concentration beside the values) | 1.6% of 350,000 active;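 active means significant combined selectivity score with lowered wild-type GFP, culture density cut under 30%, mutant RFP and density less affected; inactive means any of these conditions unmet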; further: one replicate is shown; some compounds called inactive have numbers as strong as hits
# AF4-AF9 inh: inhibitors of AF4 peptide binding to AF9, primary screen, biochemical, AlphaScreen, biotin-AF4 peptide, FLAG-AF9, single point; AID 651704, 2012; 0.47% of 350,000 active; inhibition, % at 10 µM; Protein AF-9 (Homo sapiens), P42568;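 active means every replicate reaching a set inhibition limit, whatever the replicate mean, cut at about 25% in these data; inconclusive means mean inhibition reaches that limit but some replicates miss it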;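 further: 0% = plate neutral control median and 100% = total signal loss; the record names both 10 and 1 µM as test concentration; the first replicate is given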
# ALR H2O2 inh: inhibitors of human ALR sulfhydryl oxidase, primary screen, biochemical, H2O2 detection, HRP-luminol luminescence, single point; FAD-linked sulfhydryl oxidase ALR (Homo sapiens), P55789; purified ALR, DTT oxidation; inhibition, % (no concentration beside the values); 3.8% of 290,000 active;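 active means mean and each replicate at 75% or more; inconclusive means only one of the two met; inactive means neither met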;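 further: stock transfer was 7.5 nL into about 7.5 µL; 0% = neutral wells and 100% = wells with inactivated enzyme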
# Target sequence (P55789 whole entry, looked up): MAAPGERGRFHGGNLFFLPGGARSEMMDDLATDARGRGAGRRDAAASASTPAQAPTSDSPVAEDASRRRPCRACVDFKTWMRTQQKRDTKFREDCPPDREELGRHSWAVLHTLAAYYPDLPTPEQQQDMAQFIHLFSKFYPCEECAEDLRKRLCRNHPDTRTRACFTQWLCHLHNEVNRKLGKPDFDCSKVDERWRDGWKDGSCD
# HNF4A DNA FP: change in binding of human HNF4A to DNA, primary screen, biochemical, fluorescence polarization, FITC-DNA; Hepatocyte nuclear factor 4-alpha (Homo sapiens), P41235; 1 h; activity change, % at 10 µM; 0.3% of 360,000 active; AID 1224865, 2016; in the data active means activity change above about 30%, passing the limit was not always enough;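 further: controls were the assay level and a saturating level of protein; the project sought stronger binding though the title names inhibitors; some compounds called inactive have numbers as strong as hits; positive values seem to mean higher polarization but the record does not say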
# Target sequence (P41235 whole entry, looked up): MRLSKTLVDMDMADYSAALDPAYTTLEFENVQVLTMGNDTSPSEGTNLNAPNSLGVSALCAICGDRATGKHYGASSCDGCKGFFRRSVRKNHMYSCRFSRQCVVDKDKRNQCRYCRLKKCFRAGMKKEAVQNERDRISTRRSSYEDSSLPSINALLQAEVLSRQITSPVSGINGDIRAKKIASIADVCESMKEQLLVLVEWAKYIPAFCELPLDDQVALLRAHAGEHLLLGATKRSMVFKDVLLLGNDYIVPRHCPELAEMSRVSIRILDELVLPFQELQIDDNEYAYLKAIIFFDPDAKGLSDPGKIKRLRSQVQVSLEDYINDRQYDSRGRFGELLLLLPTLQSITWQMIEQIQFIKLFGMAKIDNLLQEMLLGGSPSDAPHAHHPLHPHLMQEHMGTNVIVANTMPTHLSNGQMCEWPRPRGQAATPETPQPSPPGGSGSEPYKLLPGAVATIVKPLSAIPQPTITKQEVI
# Vif A3G: inhibitors of Vif binding to APOBEC3G peptide, primary screen, biochemical, TR-FRET, GST-Vif 1-94, biotin-A3G peptide, dose response retest (AID 1117319); Virion infectivity factor (Human immunodeficiency virus type 1 group M subtype B (isolate …; TR-FRET GST-Vif / biotin-A3G peptide binding; higher % means a stronger effect; test concentration not given here; strong numbers were not always called active; inhibition, %, or IC50 in µM where a hit was titrated; 0.57% of 260,000 active;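 active means above the screen mean plus three standard deviations and confirmed in dose response; inconclusive means results disagree or hit not tested in dose response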;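 further: Vif residues 1-94 fused to GST binding biotinylated APOBEC3G peptide 110-148; 0% = full assay without inhibitor and 100% = GST in place of GST-Vif; retest series ran down from 100 µM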
# Ecoli rRNA inh OD600: second read-out of Ecoli rRNA inh, no call of its own (marks repeat the call); OD600 change, %; measured here: OD600 growth;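 optical density of the mix in the first replicate; 0 = DMSO median and -100 = no signal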
# Ecoli rRNA inh RFP: recorded beside Ecoli rRNA inh, whose call it bears; RFP signal change, %; measured here: RFP humanized mutant strains;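 first replicate; 0 = DMSO median and -100 = no signal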
# An asterisk follows results filed as active; i = inactive; ? = inconclusive; / = not tested or not shown; & = joins results of further samples.
item	smiles	HNF4A DNA FP	ALR H2O2 inh	Ecoli rRNA inh RFP	AF4-AF9 inh	Ecoli rRNA inh OD600	FGF22 binding	Vif A3G	Ecoli rRNA inh	Ecoli growth
1	Cc1cccc(OCC(=O)NNC(=O)CCc2ccccc2)c1	3.5	/	-0.7	0.0	5	i	18%	4	0.71
2	CN(c1ccc(Br)cc1)S(=O)(=O)c1ccc2[nH]cc(C(=O)NCCN3CCOCC3)c(=O)c2c1	-0.3	1	0.5	3.3	-21	i	/	-3	0.69
3	COC(=O)c1cccc(CN2C(=O)C(C)Sc3cc(Cl)ccc32)c1 (stereo not drawn)	-5.1	/	-10	2.5	-27	i	/	-31	/
4	CCOc1ccc(S(=O)(=O)N(CC(=O)NN=C2CCN(C)CC2)c2ccc(C)cc2)cc1	-1.7	11	2.7	2.0	9	i	/	4	0.66
5	CN1CCN(S(=O)(=O)c2ccc(N3CCN(S(=O)(=O)c4cccs4)CC3)nc2)CC1	3.1	7	/	/	/	/	-24%	/	0.69
6	O=C(c1ccc(-n2cccn2)cc1)N1CCc2ccccc2C1	-1.9	32	0.1*	-3.9	-13*	i	/	-27*	0.69
7	COc1ccc(-n2c(Cn3nc(C(F)(F)F)cc3C)n[nH]c2=S)cc1	-0.6	21	/	/	/	/	/	/	0.71
8	COc1ccc(S(=O)(=O)NC(C)C(=O)N2CCCC2)cc1C (stereo not drawn)	1.7	-3	0.6	-2.2	6	i	/	15	0.69
9	CCOC(=O)CSC1=Nc2ccccc2C2=NC(CC(=O)NCc3ccc(OC)cc3)C(=O)N12 (stereo not drawn)	1.6	10	/	/	/	/	14%	/	0.71
10	COc1ccc(N2CCN(S(=O)(=O)c3cc4c5c(c3)C(C)C(=O)N5CCC4)CC2)cc1 (stereo not drawn)	-1.4	23	0.1	-4.9	13	i	-7%	11	0.73
11	COc1ccc(CN(C)C[C@H]2OCCCC[C@H](C)Oc3ccc(NS(=O)(=O)c4ccc(F)cc4)cc3C(=O)N([C@@H](C)CO)C[C@@H]2C)cc1	/	/	0.1	1.9	-3	i	/	4	/
12	CCOc1ccccc1C1CC(=O)Nc2cc3c(cc21)OCCO3 (stereo not drawn)	3.2	-1	/	/	/	/	3%	/	0.64
13	N#Cc1cccc(-c2ccc([C@H]3[C@@H](CO)N4CCCCN(C(=O)Nc5ccc(F)cc5)C[C@@H]34)cc2)c1	/	/	5.6	-3.6	4	i	/	3	/
14	COc1nc(C)cc(C)c1S(=O)(=O)c1ccc(Cl)cc1	-0.6	3	-6.5	-0.9	-13	i	-18%	-20	0.67
15	O=C(C1CCCO1)N1CCC(O)(c2ccccc2)CC1 (stereo not drawn)	-3.3	-3	/	/	/	/	-10%	/	0.68
16	Cc1ccc(S(=O)(=O)/N=C/c2ccc(N(C)C)cc2)cc1	18	6	/	/	/	/	-4%	/	/
17	O=C(O)c1ccccc1-c1ccccc1C(=O)Nc1ccc(-c2nc3cc(Cl)ccc3o2)cc1	2.2	/	11	-0.9	-53	/	-7%	-49	0.63
18	CCn1c(=O)c(C(=O)NNC(=O)c2ccc(Cl)cc2Cl)c(O)c2ccccc21	-0.4	/	-1.1	-0.2	6	i	/	8	0.71
19	O=C(COC(=O)C1c2ccccc2Oc2ccccc21)Nc1ccc2c(c1)OCO2	2.1	-11	/	/	/	/	15%	/	0.7
20	Cc1noc(C)c1NC(=O)N(C)C[C@H]1Oc2ccc(NC(=O)CCN3CCOCC3)cc2C(=O)N([C@@H](C)CO)C[C@@H]1C	/	/	-0.6	-0.7	6	i	/	3	/

# Results in HNF4A DNA FP, ALR H2O2 inh and Ecoli growth, for some of the entries so far:
item | SMILES | HNF4A DNA FP | ALR H2O2 inh | Ecoli growth
16 | Cc1ccc(S(=O)(=O)/N=C/c2ccc(N(C)C)cc2)cc1 | 18 | 6 | /
17 | O=C(O)c1ccccc1-c1ccccc1C(=O)Nc1ccc(-c2nc3cc(Cl)ccc3o2)cc1 | 2.2 | / | 0.63
18 | CCn1c(=O)c(C(=O)NNC(=O)c2ccc(Cl)cc2Cl)c(O)c2ccccc21 | -0.4 | / | 0.71
19 | O=C(COC(=O)C1c2ccccc2Oc2ccccc21)Nc1ccc2c(c1)OCO2 | 2.1 | -11 | 0.7

# Back to the main list with the 2 entries that preceded the break.
item	smiles	HNF4A DNA FP	ALR H2O2 inh	Ecoli rRNA inh RFP	AF4-AF9 inh	Ecoli rRNA inh OD600	FGF22 binding	Vif A3G	Ecoli rRNA inh	Ecoli growth
19	O=C(COC(=O)C1c2ccccc2Oc2ccccc21)Nc1ccc2c(c1)OCO2	2.1	-11	/	/	/	/	15%	/	0.7
20	Cc1noc(C)c1NC(=O)N(C)C[C@H]1Oc2ccc(NC(=O)CCN3CCOCC3)cc2C(=O)N([C@@H](C)CO)C[C@@H]1C	/	/	-0.6	-0.7	6	i	/	3	/
21	CC(=O)c1ccc(OCc2cc(C(=O)NCC3CCCCO3)no2)cc1 (stereo not drawn)	-1.2	-2	-1.9	-0.9	5	i	-5%	2	0.7
22	Cc1ccc(NC(=O)CS(=O)CC(=O)Nc2cccc(C)c2C)cc1F (stereo not drawn)	-2.4	-17	/	/	/	/	1%	/	0.73
23	CC(C)Oc1ccc(C(CCNCc2ccc(O)cc2)c2ccccc2)cc1 (stereo not drawn)	2.5	-16	-21	16	-84	i	-11%	-68	0.61
24	Cc1ccc(C(=O)Nc2nnc(COCCO)s2)cc1	1.6	/	-4.9	-2.9	14	i	/	8	/
25	CC(C)CCN1CCC(n2nccc2NC(=O)C2CCOC2)CC1 (stereo not drawn)	3.0	-1	-3.4	0.8	22	i	/	10	0.71
26	O=C(NC1CCCCC1)N[C@@H]1CC[C@H](CCNS(=O)(=O)c2ccc(F)cc2)O[C@@H]1CO	/	/	-2.5	1.4	-3	i	/	-1	/
27	CC(C)OCCCn1c(=S)[nH]c2ccc(N3CCOCC3)cc2c1=O	1.9	-14	/	/	/	/	32%	/	0.72
28	C[C@@H]1CCCCO[C@H](CN(C)S(=O)(=O)c2ccc(F)cc2)[C@H](C)CN([C@@H](C)CO)C(=O)c2cc(NS(=O)(=O)c3cccs3)ccc2O1	/	/	2.4	-0.1	-8	i	/	-4	/
29	CCCC(=O)Nc1ccc2c(c1)OC[C@@H](C)N(C(=O)Cc1cccnc1)C[C@@H](C)[C@H](OC)CN(C)C2=O	/	/	0.2	0.5	0	i	/	0	/
30	Cc1cc2n(n1)SC(Nc1ccccc1)N2 (stereo not drawn)	0.6	9	/	/	/	/	-5%	/	0.7
31	O=C(Cc1ccccc1)N[C@H]1CC[C@H](CC(=O)N2CCOCC2)O[C@H]1CO	/	/	-2.1	1.6	-1	i	/	0	/
32	CNC(=O)Oc1ccc2c(c1)[C@]1(C)CCN(C)[C@@H]1N2C	3.8&4.6	1	/	-4.7&-3.3	/	i	17%	/	/
33	COc1ccc(COC[B-](F)(F)F)cc1	0.5	/	-5.9	-4.8	3	i	-4%	6	/
34	O=C(Nc1ccc(OCCO)cc1)c1csc([C@@H]2O[C@H](CO)[C@H](O)[C@H](O)[C@H]2O)n1	-1.4	/	-2.5	-3.0	11	i	/	6	/
35	C[C@@H]1CCCCO[C@@H](CN(C)C(=O)c2ccccc2)[C@H](C)CN([C@H](C)CO)C(=O)c2cc(NC(=O)Nc3ccc(C(F)(F)F)cc3)ccc2O1	/	/	0.3	1.3	-9	i	/	-2	/
36	CCOC(=O)C1CCCN(C(=O)c2cc(OC)ccc2Br)CC1 (stereo not drawn)	-0.4	/	-0.2	-3.1	0	i	/	7	/
37	CCN(CC(=O)Nc1c(F)cccc1F)C(=O)c1cc2c(cc1Cl)N1CCCCCC1=NS2(=O)=O	1.1	2	-2.2	9.7	13	i	-2%	9	0.69
38	COc1ccccc1C(=O)Nc1ccc2c3c(cccc13)CC2	4.0	-2	-5.0	1.2	16	i	-4%	16	0.73
39	COc1cc(CC(=O)NCCCc2ccccc2)cc(OC)c1OC	1.2	4	3.8	0.2	-6	i	4%	-6	0.71
40	COCCNC(=O)C[C@H]1CC[C@@H]2[C@@H](COc3ccc(NC(=O)C4CCCC4)cc3C(=O)N2C)O1	/	/	0.2	-0.5	-6	i	/	-2	/
41	C/C=C/c1cnc2c(c1)C(=O)N([C@H](C)CO)C[C@@H](C)[C@@H](CN(C)C(=O)Cc1cccnc1)O2	/	/	-3.8	-1.4	5	i	/	8	/
42	Cn1c(=O)c2c(nc(Oc3ccc4c(c3)OCO4)n2Cc2ccc(Cl)cc2)n(C)c1=O	0.8	-22	/	/	/	/	-3%	/	0.75
43	CCC(c1nnnn1C1CCCC1)N1CCN(c2ccccc2F)CC1 (stereo not drawn)	-2.0	0	/	/	/	/	?	/	0.76
44	CC1CCN(c2ccc([N+](=O)[O-])cc2C(=O)O)CC1	2.2	-10	/	/	/	/	27%	/	0.69

# Given with one line to a screen: 2 of the compounds above
42	Cn1c(=O)c2c(nc(Oc3ccc4c(c3)OCO4)n2Cc2ccc(Cl)cc2)n(C)c1=O
43	CCC(c1nnnn1C1CCCC1)N1CCN(c2ccccc2F)CC1 (stereo not drawn)

screen / no.	42	43
HNF4A DNA FP	0.8	-2.0
ALR H2O2 inh	-22	0
Ecoli rRNA inh RFP	/	/
AF4-AF9 inh	/	/
Ecoli rRNA inh OD600	/	/
FGF22 binding	/	/
Vif A3G	-3%	?
Ecoli rRNA inh	/	/
Ecoli growth	0.75	0.76

# Source: PubChem BioAssay

# Not all compounds are listed (hit frequency here may not be typical).
